# High-throughput results from PubChem BioAssay.
# RGS16-Gao: regulators of human RGS16-Galphao interaction | O15492+P09471 | bead-based flow cytometry RGS16-Galphao binding, fluorescence; actives lie on both sides | binding response (% of control), % at 10 µM | 220,000 tested, 0.38% active;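 active = below 25% or above 175%, edge rows of some plates excepted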;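 note: Galphao activated by GDP with aluminum fluoride before binding; 100% = wells without compound and 0% = beads without RGS; some results beyond the cut were filed as inactive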
# Target sequence (O15492 whole entry, looked up): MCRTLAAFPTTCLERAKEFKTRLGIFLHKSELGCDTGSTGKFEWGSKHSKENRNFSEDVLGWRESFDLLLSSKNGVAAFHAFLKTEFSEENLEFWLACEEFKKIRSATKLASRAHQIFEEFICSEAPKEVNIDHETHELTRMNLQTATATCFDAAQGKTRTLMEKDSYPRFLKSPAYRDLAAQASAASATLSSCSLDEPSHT
# Target sequence (P09471 whole entry, looked up): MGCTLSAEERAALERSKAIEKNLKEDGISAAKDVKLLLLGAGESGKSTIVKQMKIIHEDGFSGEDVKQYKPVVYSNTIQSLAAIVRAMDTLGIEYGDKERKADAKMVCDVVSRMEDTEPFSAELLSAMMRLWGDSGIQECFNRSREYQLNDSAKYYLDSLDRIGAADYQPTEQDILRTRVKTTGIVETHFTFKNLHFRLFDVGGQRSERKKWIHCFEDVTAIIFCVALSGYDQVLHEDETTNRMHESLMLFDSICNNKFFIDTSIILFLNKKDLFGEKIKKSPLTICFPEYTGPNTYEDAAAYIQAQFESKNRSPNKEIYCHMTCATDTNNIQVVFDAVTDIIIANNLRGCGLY
# GALR2 ag: activates the human galanin receptor 2 | GALR2-expressing cells, agonist activation read-out | activation, %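 (tested at 5 µM)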 | AID 803 | 140,000 tested, 0.48% active;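 active = above mean plus 3 SD of all compounds, about 5% in these data, not always enough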;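 note: 0% = vehicle buffer wells and 100% = reference agonist at full effect; tested in CHO reporter cells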
# Target sequence (O43603 whole entry, looked up): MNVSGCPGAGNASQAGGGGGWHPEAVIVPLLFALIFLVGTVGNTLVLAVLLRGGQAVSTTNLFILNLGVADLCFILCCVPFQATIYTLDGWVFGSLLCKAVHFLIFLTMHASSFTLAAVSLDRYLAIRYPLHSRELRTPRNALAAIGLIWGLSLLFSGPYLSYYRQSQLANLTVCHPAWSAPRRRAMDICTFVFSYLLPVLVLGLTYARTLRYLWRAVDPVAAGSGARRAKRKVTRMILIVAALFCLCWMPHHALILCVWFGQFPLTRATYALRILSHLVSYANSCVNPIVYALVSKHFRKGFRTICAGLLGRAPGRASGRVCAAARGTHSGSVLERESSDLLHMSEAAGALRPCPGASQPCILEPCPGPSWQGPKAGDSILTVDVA
# HSV augment: HSV replication enhancement | HSV replication augmentation in cells, fold increase | maximum fold increase | 220,000 tested, 0.005% active | AID 1956;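 active = peak rise of 1.5-fold or more in the series; tested in PC3 cells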;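 note: first round at 10 µM; read as green reporter fluorescence; hits show the peak of a series up to 25 µM; 1 = signal of infected wells without compound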
# INS promoter inh: TRM-6 insulin promoter activity inhibition; 130,000 tested, 0.9% active; TRM-6 cells (human fetal islet line), insulin promoter-eGFP reporter, imaging; reporter expression induced with tamoxifen; inhibition, % at 2 µM;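 active = inhibition above the mean plus 3 SD, with well images judged a real hit on visual review, cut at about 60% in these data, passing the limit was not always enough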
# PKD1 inh: blocks activity of human protein kinase D1 | 200,000 tested, 0.056% active | PKD1 kinase fluorescence polarization assay | inhibition, %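 (about 10 µM by stock and volumes)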 | Q15139 | AID 797;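 active = inhibition of 50% or more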;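 note: controls were vehicle for no effect and a reference inhibitor for full effect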
# INS promoter inh cell count: also measured in INS promoter inh; calls as there; normalized cell count, %; measured here: cell count, toxicity; reference of the scale not given here;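 cells exposed to compound for 48 h; stained nuclei by imaging scaled within each plate; lower means fewer cells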
# HSV augment primary fold: recorded beside HSV augment, whose call it bears; fold increase; compound at 10 µM; measured here: primary screen fold increase 10 uM; tested in PC3 cells;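 GFP signal in the first replicate; 1 = infected wells without compound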
# Starred values were filed as active, the others as inactive; i = inactive; . = no result given.
SMILES,RGS16-Gao,GALR2 ag,HSV augment,HSV augment primary fold,INS promoter inh,INS promoter inh cell count,PKD1 inh
Cc1cc(Cl)c(S(=O)(=O)Nc2ccc3c(c2)OCO3)cc1OCC(N)=O,99,-2.5,i,1,3,155,5
CCS(=O)(=O)N1Cc2ccccc2CC1C(=O)Nc1nc2ccc(C)cc2s1 (stereo not given),93,-0.2,i,0.66,-69,158,-6
NC(=O)CSc1nnc(-c2cccnc2)n1CCc1ccccc1,99,-1.6,i,0.83,.,.,-6
Cc1csc(NC(=O)C2C3C=CC(O3)C2C(=O)O)n1 (stereo not given),96,0.0,i,0.79,31,122,-2
Cc1cc(C)c2[nH]c(=O)c(CN(CC3CCCO3)C(=O)c3cnccn3)cc2c1 (stereo not given),99,-1.3,i,0.9,.,.,-4
S=c1[nH]cc(-c2ccc(Cl)cc2)n1Cc1ccccc1,95,.,i,1.1,.,.,.
CCN(C(=S)NCCOC)c1cccc2ccccc12,99,.,i,1.1,29,78,-1
CCn1cc(C(=O)N(CCCN2CCOCC2)Cc2ccco2)c(=O)c2ccc(C)nc21,103,-1.1,i,0.99,22,125,-1
Cc1ccc(S(=O)(=O)NCC(=O)N(CC(=O)NC2CCCC2)c2ccc3c(c2)OCCO3)cc1,102,0.2,i,0.97,.,.,1
O=C1CC(N2CCN(c3ccccn3)CC2)C(=O)N1CC(c1ccccc1)c1ccccc1 (stereo not given),28,-0.5,i,0.93,58,141,-8
Cn1c(SCC(N)=O)nnc1C1CCN(C(=O)NC2CCCCC2)CC1,140,-0.7,i,1,.,.,-3
CCC(C)(C(=O)NC1CCCC1)N(Cc1cccs1)C(=O)Cc1cccs1 (stereo not given),104,-2.3,i,0.95,-83,136,-4
CCOC(=O)c1ccc(NC(=O)CSc2nnc(CNC(=O)c3ccccc3F)o2)cc1,100,-0.2,i,1,-43,79,1
CN1CCN(CC(=O)N2c3ccccc3C(=O)Nc3cccnc32)CC1,65,-0.8,.,.,9,124,14
Cc1ccc(C)c(S(=O)(=O)N2CCN(Cc3ccc(O)c4ncccc34)CC2)c1,98,.,i,0.63,.,.,2
COc1ccc(CNCc2cc3c(C(C)(C)C)nn(-c4ccccc4)c3[nH]c2=O)cc1,113,-0.7,i,1,-25,90,-5
N#Cc1c(C(F)(F)F)cc(-c2ccco2)nc1SCc1ccccn1,96,-0.8,i,1.2,-371,86,3
O=C(Nc1ccc2nsnc2c1)c1cccs1,100,2.2,i,1,-6,96,-2
Cc1ccc(-n2[nH]c(C)c(C=NC34CN5CN(CN(C5)C3)C4)c2=O)cc1C,99,-2.6,i,0.92,29,54,-9
CCOc1ccc(-c2cc(C(=O)NCC3CCCO3)c3ccccc3n2)cc1 (stereo not given),39,-1.1,i,0.94,33,77,4
O=C(N/N=C/c1ccncc1)c1nn(Cc2ccccc2)c(=O)c2ccccc12,99,.,i,0.97,.,.,-3
O=C(CSc1nnc2ccccn12)NNC(=O)c1ccc(F)cc1,101,.,i,0.92,.,.,3
O=C1OCCC1Sc1nnc(-c2ccccc2Cl)n1Cc1ccccc1 (stereo not given),109,-1.1,i,1,22,118,8
COc1cccc(CC2(CO)CCCN(Cc3ccc(CN4CCCCC4)s3)C2)c1 (stereo not given),97,.,i,0.78,.,.,0
CN1CCC(C2(O)c3ccccc3CCc3ccccc32)CC1,110,-1.1,i,0.87,-43,51,0

# The listing continues.
SMILES,RGS16-Gao,GALR2 ag,HSV augment,HSV augment primary fold,INS promoter inh,INS promoter inh cell count,PKD1 inh
Cc1csc(SCC(=O)N2CCN(S(=O)(=O)c3ccccc3)CC2)n1,104,-1.7,.,.,-20,108,4
N#Cc1ccc(OCC(=O)N/N=C2\CCc3ccccc32)cc1,105,-1.5,i,0.85,-26,85,-3
O=S(=O)(Cc1cnc(Cl)s1)c1ccccc1,112,-1.4,i,0.9,13,100,-5
O=S(=O)(NCc1cn2ccsc2n1)c1ccc2c(c1)OCCO2,100,-1.6,i,1,-20,85,-1
CCOC(=O)N1CCN(C(=O)c2ccc3c(=O)n(-c4cc(OC)ccc4OC)c(=S)[nH]c3c2)CC1,109,.,i,0.87,.,.,-3
O=C(NCCCN1CCOCC1)c1ccc(CSc2ccc(Cl)cc2)cc1,117,.,i,0.73,-58,81,-3
CCCc1ccc(-c2cc(NC(=O)CSc3nnc(N)s3)n(-c3ccccc3)n2)cc1,99,0.4,i,0.77,.,.,8
NS(=O)(=O)c1ccc(NC(=S)Nc2ccc(S(=O)(=O)N3CCCC3)cc2)cc1,106,.,i,1,-19,114,-5
COc1ccc(C)cc1NC(=O)c1ccc2c(c1)OCO2,116,-1.5,i,1.1,.,.,4
COc1ccc(C2(C(N)=O)CCCCC2)cc1OC,117,0.0,i,0.96,-111,57,-3
COc1ccc(C(=O)NC2(C(F)(F)F)NC(=O)N(CCCc3ccccc3)C2=O)c(OC)c1OC (stereo not given),101,-0.2,.,.,.,.,-3
O=C(c1ccc(COc2ccccc2Br)cc1)N1CCCCC1,97,-2.3,i,0.82,36,157,1
COc1ccc(N2CCN(C(=O)c3cn(C4CCCC4)c(=O)c4c3c3ccccc3n4C)CC2)cc1,95,-0.1,.,.,17,44,2
O=c1cc(O)c2sc3nc(-c4cccnc4)cc(C(F)(F)F)c3c2[nH]1,102,0.4,i,1.1,-10,90,2
CCOc1ccc(C(=O)NC(=S)Nc2cccnc2)cc1[N+](=O)[O-],105,.,i,0.96,-17,59,2
CC(C)CC1CC(C)(c2csc(NNC(=O)c3ccccc3)n2)OC1=O (stereo not given),98,.,i,1,26,85,0
CSc1ccc(CNc2ccccc2)cc1,97,-3.1,i,0.87,17,135,-1
Cc1cc(C(=O)CSc2nnc(-c3ccccc3)n2C)c(C)n1C,103,-1.9,i,1,58,115,-14
Cc1cc(C)c2c(n1)nn1c(NCCN3CCOCC3)cc(C)nc21,100,-1.5,i,0.88,.,.,6
Cc1cc(Nc2cnc3ccccc3n2)n(-c2ccccc2)n1,101,-2.8,i,0.93,12,138,-2
COc1ccc(Cn2cc(F)c(=O)n(C)c2=O)cc1[N+](=O)[O-],93,.,i,0.98,.,.,.
NC(CC(=O)O)c1ccc(F)cc1 (stereo not given),54,-1.7,i,1.1,.,.,0
COc1cc(/C=C/C(=O)OCC(=O)NC(=O)NC(C)C)cc(S(=O)(=O)N2CCc3ccccc32)c1OC,101,.,i,0.84,.,.,-7
COc1ccc(C(=O)NCC(C)(C)SCc2c(C)cc(C)cc2C)cc1,104,-0.6,i,0.72,-10,73,-2
COC(=O)c1cc(OC)c(OC)cc1NC(=O)c1ccoc1C,100,1.2,i,0.92,-311,58,1

# (list continues)
SMILES,RGS16-Gao,GALR2 ag,HSV augment,HSV augment primary fold,INS promoter inh,INS promoter inh cell count,PKD1 inh
CC1CCN(CCc2nc3cc(NS(=O)(=O)c4ccc(F)cc4)ccc3n2C)CC1,103,0.6,i,0.78,43,61,0
Nc1ccc(-n2cnc3cc([N+](=O)[O-])ccc32)cc1,110,-2.4,i,0.89,50,55,-8
C#CCNC(=O)C1=C[C@@H](C)C[C@@H](OCc2ccc(CO)cc2)O1,102,.,i,0.93,.,.,-1
CCn1ncc(CN2CCCC(CNC(=O)c3ccc(F)cc3)C2)c1C (stereo not given),110,.,i,0.89,-4,134,-10
CCOC(=O)c1c(C)[nH]c(C(=O)Cn2nnc(-c3ccccc3Cl)n2)c1C,99,-2.7,i,1,36,56,-13
Cc1cccc(NC(=O)CSc2nc(N)c(NC(=O)c3cccs3)c(=O)[nH]2)c1C,122,-0.3,i,0.98,20,117,-9
CCCCCCCc1c(O)nc(SCCN2CCOCC2)[nH]c1=O,110,.,i,1,.,.,-2
CCc1ccc(NC(=O)Cn2c(SC)nc3ccccc32)cc1,100,-1.5,i,0.88,.,.,3
O=C(CSc1nncs1)NCCCc1ccccc1,116,.,i,0.95,-42,102,0
CCOc1ccccc1-n1c(SCC(=O)N2CCCC2)nnc1-c1ccoc1C,101,-1.4,i,0.93,8,113,-4
CCN(CC)C(=O)c1cn(-c2ccccc2)nc1-c1ccc2c(c1)OCCO2,106,.,i,0.61,.,.,-8
COc1ccc(/C=N/NC(=O)c2cc(C34CC5CC(CC(C5)C3)C4)[nH]n2)cc1O,107,-3.0,i,0.89,-23,131,2
C=CC(=O)NN(C)c1ncc(C(F)(F)F)cc1Cl,102,.,i,0.68,.,.,2
COC(=O)c1[nH]c2ccc(C)cc2c1NC(=O)NC1CCCCC1,105,-0.9,i,0.96,-37,98,-5
CCSc1nnc(NC(=O)c2ccc3c(c2)OCO3)s1,97,-1.0,i,0.91,-15,171,-9
CCCOc1ccc(Oc2cc(C)nc(SC)n2)nn1,97,-0.6,i,1,3,61,4
O=C(CCN1C(=O)/C(=C/c2ccccc2)SC1=S)NNC(=O)c1cccnc1,102,-1.5,i,0.96,.,.,-7
COc1ccc(/C=C/C(=O)N2CCN(C)CC2)cc1S(=O)(=O)N1CCCCC1,102,.,i,0.78,.,.,3
CC(=O)N[C@@H](Cc1c[nH]c2ccccc12)C(=O)OCC(=O)NCc1ccc2c(c1)OCO2,105,.,i,1.1,8,61,-2
CC(Oc1ccccc1)C(=O)Nc1ccc(S(=O)(=O)NCC2CCCO2)cc1 (stereo not given),114,-3.0,i,0.88,-52,88,-3
Cc1cccc(-c2ncc(CN3CCN(CC(C)C)C(CCO)C3)cn2)c1 (stereo not given),106,.,i,0.98,.,.,-2
O=C(NCc1ccccc1)c1cccc(S(=O)(=O)NCc2ccccc2)c1,106,-2.3,i,0.86,41,84,-5
COc1cc(S(=O)(=O)N2CCN(C)CC2)ccc1Cl,36,-0.3,i,1,-8,38,-13
COc1ccccc1N1C(=O)C(Cl)=C(Nc2ccccc2O)C1=O,97,.,i,1.2,-379,103,-1
O=C(NCCC1=CCCCC1)C1CCN(S(=O)(=O)c2cccc3cccnc23)CC1,101,-2.2,i,0.95,.,.,-4

# (next part)
SMILES,RGS16-Gao,GALR2 ag,HSV augment,HSV augment primary fold,INS promoter inh,INS promoter inh cell count,PKD1 inh
Cc1ccc(NC(=O)COC(=O)Cn2c(C)csc2=O)cc1C,118,2.0,i,0.86,.,.,-18
S=C(NCc1ccco1)N1CCOCC1,101,.,i,0.95,.,.,0
CCOC(=O)C1=C(C)Nc2[nH]c(=O)[nH]c(=O)c2C1c1cccs1 (stereo not given),85,0.2,.,.,20,117,5
O=C(Nc1cc(C(F)(F)F)ccc1Cl)C(Sc1cccc[n+]1[O-])c1ccccc1 (stereo not given),108,-0.6,i,0.89,-20,52,-4
C/C(=N\NS(=O)(=O)c1ccc(Br)cc1)c1cccs1,-881*,-2.6,i,0.89,4,168,3
COc1ccccc1NC(=O)c1cc(C)oc1C,105,.,i,0.95,.,.,0
CCN(CC)C(=O)CSc1nc2cc3c(cc2c(=O)n1CCCCCC(=O)NCc1ccc(OC)cc1)OCO3,105,.,i,0.94,36,66,7
O=C(O)c1csc(Br)c1Br,107,-0.9,i,1,29,121,-12
C=CCn1c(O)c(N=NC(=S)Nc2ccccc2F)c2ccccc21,107,.,i,0.88,.,.,-3
Cc1ccc(NC(=O)NCc2ccc3c(c2)OCO3)cc1,97,-1.1,i,1.1,-13,102,-11
